APJ antagonist = APJ receptor antagonism; P35414; CHO-K1 APJ beta-arrestin complementation, luminescence; 330,000 tested, 0.32% active; AID 2521; inhibition, % at 20 µM;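 active means inhibition above about 40% at 20 µM, limit read from the data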;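 further: cells challenged with 10 nM apelin-13 agonist together with compound; plate controls were apelin-13 plus DMSO wells for no effect and DMSO wells lacking apelin-13 for full effect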
Target sequence (P35414 whole entry, looked up): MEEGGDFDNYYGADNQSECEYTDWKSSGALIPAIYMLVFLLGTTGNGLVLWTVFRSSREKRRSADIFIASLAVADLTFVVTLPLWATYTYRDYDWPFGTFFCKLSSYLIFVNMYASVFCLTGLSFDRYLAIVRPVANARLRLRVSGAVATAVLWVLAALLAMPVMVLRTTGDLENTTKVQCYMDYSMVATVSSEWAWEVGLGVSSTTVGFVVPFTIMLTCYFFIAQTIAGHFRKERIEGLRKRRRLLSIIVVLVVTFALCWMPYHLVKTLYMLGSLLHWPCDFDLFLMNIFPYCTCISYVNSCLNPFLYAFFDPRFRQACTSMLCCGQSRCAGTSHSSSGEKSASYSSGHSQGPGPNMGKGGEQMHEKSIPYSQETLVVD
XBP1 UPR activ = adaptive UPR (XBP1) activation; CHO-XBP1 luciferase reporter, IRE1-XBP1 UPR activation, luminescence; percent of tunicamycin response, DMSO as zero; activation, % at 20 µM; 330,000 tested, 0.33% active;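 active means versus positive control, 20 µM dose yields 30% or more activation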;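 further: 100% = tunicamycin at 10 µg/mL and 0% = DMSO only wells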
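Material: CHO-XBP1 cells stably carrying IRE1-XBP1-driven luciferase reporter / Amount: 1000 cells per well / Compound: 20 µM, 1% DMSO / Times: 6 h treatment, 37 °C / Detection: luciferase luminescence / Measure: % activation of reporter signal versus tunicamycin and DMSO controls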
UPR CHOP act = activators of apoptotic arm of unfolded protein response (CHOP) | activation, % at 10 µM | 330,000 tested, 0.34% active | CHO-CHOP luciferase reporter, UPR activation, luminescence; percent of tunicamycin response over DMSO baseline | AID 449763;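 active means at 10 µM dose, activation of 40% or more, normalized to positive control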;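 further: 100% = tunicamycin at 10 µg/mL and 0% = DMSO alone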
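Test system: CHO-CHOP cells, stable luciferase reporter of PERK-eIF2a-CHOP signalling | Quantity: 500 CHO-CHOP cells per well | Buffer or medium: F12 plus 10% serum | Compound dosing: 10 µM single point, 0.5% DMSO | Schedule: 6 h compound treatment, 37 °C | Signal: Luciferase luminescence | Control set: Tunicamycin high control, DMSO low control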
APJ agonist = APJ receptor agonism. CHO-K1 APJ PathHunter beta-arrestin, luminescence; 0% DMSO wells, 100% apelin. AID 2520. 330,000 tested, 0.11% active. activation, % at 20 µM. P35414;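 active means activation more than six SD over the plate average, tested at 20 µM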;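 further: 0% = DMSO alone and 100% = apelin-13 at 10 nM; some results filed as inactive read as strong as hits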
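Test system: CHO-K1 APJ beta-arrestin complementation cell line | Compound: Single test compound dose, 20 µM final, 1% DMSO | Incubation: Compound 90 min 25 °C, reagent 1 h | Measured by: beta-gal luminescence | Read-out basis: APJ–arrestin association signal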
Active calls of the source: *; & = joins results of further samples. These rows are one share of the data; rates above refer to the full screens.

SMILES	APJ antagonist	XBP1 UPR activ	UPR CHOP act	APJ agonist
Cc1nc(-c2ccccc2)c(-c2ccccc2)[nH]1	-0.2	-3.9	-3.0	-6.7
CN1C2CC(OC(=O)C(CO)c3ccccc3)CC1C1OC12 (stereo not drawn)	13.9&8.3&-7.9	0.5&-5.4&-5.1	3.6&0.6&-0.7	-3.8&-5.3&0.4
CC(=O)c1nc2ccccc2n1S(=O)(=O)c1ccc(Cl)cc1	11.6	1.8	0.1	2.1
CN1C2CCC1CC(OC(=O)C(CO)c1ccccc1)C2 (stereo not drawn)	10.4	-6.7	-2.0	-4.1
NS(=O)(=O)c1ccc(NC(=O)Nc2ccccc2)cc1	5.9	0.2	1.1	-1.7
N#Cc1c(-c2cccc(Br)c2)cc(-c2ccco2)[nH]c1=O	-24.4	-2.8	-0.2	1.9
CCOc1ccc2nc(S(N)(=O)=O)sc2c1	-19.8	-4.6	-1.8	3.3
Cc1nc2ccc(S(=O)(=O)NCC(=O)NCCN3CCCCCC3)cc2s1	2.5	2.2	0.6	-2.7
NS(=O)(=O)c1ccc(NC(=O)Nc2ccc(C(F)(F)F)cc2)cc1	-1.6	-0.5	-2.6	3.2
Cc1cccc(N2CCN(C(=O)c3cc4c(=O)n(C)c5ccccc5c4n3C)CC2C)c1 (stereo not drawn)	-6.9	-0.9	0.0	0.9
O=C(O)COCCN1CCN([C@H](c2ccccc2)c2ccc(Cl)cc2)CC1	-0.3	-5.4	3.5	-1.0
O=C(O)c1cc(NS(=O)(=O)c2cccc3ccccc23)ccc1O	19.9	-7.1	-0.8	-4.2

Arranged by length of the SMILES (largest number first): part of the list above
SMILES	APJ antagonist	XBP1 UPR activ	UPR CHOP act	APJ agonist
Cc1cccc(N2CCN(C(=O)c3cc4c(=O)n(C)c5ccccc5c4n3C)CC2C)c1 (stereo not drawn)	-6.9	-0.9	0.0	0.9
O=C(O)COCCN1CCN([C@H](c2ccccc2)c2ccc(Cl)cc2)CC1	-0.3	-5.4	3.5	-1.0
NS(=O)(=O)c1ccc(NC(=O)Nc2ccc(C(F)(F)F)cc2)cc1	-1.6	-0.5	-2.6	3.2
Cc1nc2ccc(S(=O)(=O)NCC(=O)NCCN3CCCCCC3)cc2s1	2.5	2.2	0.6	-2.7
O=C(O)c1cc(NS(=O)(=O)c2cccc3ccccc23)ccc1O	19.9	-7.1	-0.8	-4.2
NS(=O)(=O)c1ccc(NC(=O)Nc2ccccc2)cc1	5.9	0.2	1.1	-1.7
Cc1nc(-c2ccccc2)c(-c2ccccc2)[nH]1	-0.2	-3.9	-3.0	-6.7
CCOc1ccc2nc(S(N)(=O)=O)sc2c1	-19.8	-4.6	-1.8	3.3

High-throughput results (PubChem BioAssay)
